Source: PubChem
GALR2 ag: agonists of human galanin receptor 2 (GALR2) | GALR2-expressing cells, agonist activation read-out | hit rate 0.48% among 140,000 | O43603 | activation, %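 (tested at 5 µM)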;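 active = above mean plus 3 SD of all compounds, about 5% in these data, not always enough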;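 note: 0% = vehicle buffer wells and 100% = reference agonist at full effect; tested in CHO reporter cells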
Target sequence (O43603 whole entry, looked up): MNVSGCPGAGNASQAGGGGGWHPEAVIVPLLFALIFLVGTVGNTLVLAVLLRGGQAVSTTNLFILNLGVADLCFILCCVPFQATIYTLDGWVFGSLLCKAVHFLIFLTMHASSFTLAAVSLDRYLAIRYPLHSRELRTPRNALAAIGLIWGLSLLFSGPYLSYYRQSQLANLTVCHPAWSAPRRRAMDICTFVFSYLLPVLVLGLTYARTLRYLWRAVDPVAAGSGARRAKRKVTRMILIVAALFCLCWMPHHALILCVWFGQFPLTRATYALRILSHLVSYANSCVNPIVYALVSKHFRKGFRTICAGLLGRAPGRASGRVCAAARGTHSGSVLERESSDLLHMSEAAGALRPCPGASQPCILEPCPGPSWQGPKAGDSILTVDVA
INS promoter inh: TRM-6 insulin promoter activity inhibition; inhibition, % at 2 µM; hit rate 0.9% among 130,000; TRM-6 cells (human fetal islet line), insulin promoter-eGFP reporter, imaging; reporter expression induced with tamoxifen;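 active = inhibition above the mean plus 3 SD, with well images judged a real hit on visual review, cut at about 60% in these data, passing the limit was not always enough; inconclusive = inhibition over the cutoff but images rejected on review; inactive = inhibition not above the cutoff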
RGS16-Gao: RGS16-Galphao interaction regulator (human); binding response (% of control), % at 10 µM; bead-based flow cytometry RGS16-Galphao binding, fluorescence; actives lie on both sides; O15492+P09471; hit rate 0.38% among 220,000;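 active = below 25% or above 175%, edge rows of some plates excepted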;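 note: Galphao activated by GDP with aluminum fluoride before binding; 100% = wells without compound and 0% = beads without RGS; some results beyond the cut were filed as inactive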
Target sequence (O15492 whole entry, looked up): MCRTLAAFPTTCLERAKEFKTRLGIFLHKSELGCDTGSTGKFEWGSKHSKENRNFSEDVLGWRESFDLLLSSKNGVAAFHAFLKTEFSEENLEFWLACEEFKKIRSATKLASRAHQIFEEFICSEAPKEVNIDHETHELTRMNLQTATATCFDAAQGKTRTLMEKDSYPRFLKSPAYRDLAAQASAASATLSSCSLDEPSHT
Target sequence (P09471 whole entry, looked up): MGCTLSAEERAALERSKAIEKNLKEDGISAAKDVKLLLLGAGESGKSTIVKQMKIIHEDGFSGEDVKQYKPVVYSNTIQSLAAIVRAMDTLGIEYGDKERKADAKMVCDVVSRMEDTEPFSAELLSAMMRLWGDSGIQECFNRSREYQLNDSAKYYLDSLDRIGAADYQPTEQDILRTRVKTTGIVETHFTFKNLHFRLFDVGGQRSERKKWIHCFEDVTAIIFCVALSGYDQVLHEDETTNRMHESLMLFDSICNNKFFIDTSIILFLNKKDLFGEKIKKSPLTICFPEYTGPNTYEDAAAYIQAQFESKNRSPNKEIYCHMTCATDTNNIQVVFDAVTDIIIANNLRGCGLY
HSV replic up: HSV replication enhancement. HSV replication augmentation in cells, fold increase. maximum fold increase. hit rate 0.005% among 220,000;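 active = peak rise of 1.5-fold or more in the series; inconclusive = self-fluorescent or not available for retest; tested in PC3 cells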;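 note: first round at 10 µM; read as green reporter fluorescence; hits show the peak of a series up to 25 µM; 1 = signal of infected wells without compound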
PKD1 kinase inh: inhibitors of human PKD1 kinase; Q15139; PKD1 kinase fluorescence polarization assay; inhibition, %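 (about 10 µM by stock and volumes)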; hit rate 0.056% among 200,000; AID 797;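 active = inhibition of 50% or more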;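 note: controls were vehicle for no effect and a reference inhibitor for full effect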
INS promoter inh cell count: also measured in INS promoter inh; calls as there; normalized cell count, %; measured here: cell count, toxicity; reference of the scale not given here;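 cells exposed to compound for 48 h; stained nuclei by imaging scaled within each plate; lower means fewer cells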
HSV replic up primary fold: also measured in HSV replic up; calls as there; fold increase; compound at 10 µM; measured here: primary screen fold increase 10 uM; tested in PC3 cells;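 GFP signal in the first replicate; 1 = infected wells without compound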
The depositor's hits bear a star; i = inactive; ? = inconclusive; . = not tested or not shown.

#	SMILES	GALR2 ag	INS promoter inh	INS promoter inh cell count	RGS16-Gao	HSV replic up	HSV replic up primary fold	PKD1 kinase inh
1	FC(F)(F)c1cnc(Sc2ncn[nH]2)c(Cl)c1	.	.	.	101	i	1	0
2	CC12CCC(C(=O)NCc3cccnc3)(OC1=O)C2(C)C (stereo not given)	-1.8	62	141	103	i	1	6
3	COc1ccccc1NS(=O)(=O)c1cccc2cccnc12	-0.3	.	.	112	i	0.68	0
4	CCc1ccc(-n2c(CSc3nnnn3-c3ccccc3)nc3ccccc3c2=O)cc1	-2.6	.	.	102	i	1.1	2
5	CC(=O)Nc1ccc(NC(=O)C(C)OC(=O)CCc2nc3ccccc3s2)cc1 (stereo not given)	.	.	.	99	i	1	-1
6	C=CCSc1nc(N)c(C(=O)Nc2ccccc2C)cc1C(N)=O	-2.4	8	150	98	i	0.95	9
7	CCOC(=O)c1cc(Sc2ccccc2N)cc(C(=O)OCC)n1	.	.	.	97	i	1.2	.
8	O=C(c1coc(=O)c(Br)c1)N1CCOCC1	-1.3	-4	99	107	i	1	-9
9	COc1ccc(OC)c(-c2csc(NC(=O)Cn3[nH]c(=O)c4ccccc4c3=O)n2)c1	.	-17	41	115	i	0.7	4
10	COc1ccc(NC(=O)c2cc(C(C)C)on2)cc1OC	-2.6	9	109	99	i	1	-10
11	CC(C)COC(=O)NCCCOC(=O)Nc1ccccc1	-3.1	.	.	109	i	0.89	-16
12	O=C(COC(=O)C1CC2C=CC1C2)NCc1ccccc1Cl (stereo not given)	-1.4	-7	50	114	i	1	-4

Another view of 3 compounds above.
2	CC12CCC(C(=O)NCc3cccnc3)(OC1=O)C2(C)C (stereo not given)
  GALR2 ag: -1.8	INS promoter inh: 62	INS promoter inh cell count: 141	RGS16-Gao: 103	HSV replic up: i	HSV replic up primary fold: 1	PKD1 kinase inh: 6

3	COc1ccccc1NS(=O)(=O)c1cccc2cccnc12
  GALR2 ag: -0.3	INS promoter inh: .	INS promoter inh cell count: .	RGS16-Gao: 112	HSV replic up: i	HSV replic up primary fold: 0.68	PKD1 kinase inh: 0

4	CCc1ccc(-n2c(CSc3nnnn3-c3ccccc3)nc3ccccc3c2=O)cc1
  GALR2 ag: -2.6	INS promoter inh: .	INS promoter inh cell count: .	RGS16-Gao: 102	HSV replic up: i	HSV replic up primary fold: 1.1	PKD1 kinase inh: 2

Additional results.
#	SMILES	GALR2 ag	INS promoter inh	INS promoter inh cell count	RGS16-Gao	HSV replic up	HSV replic up primary fold	PKD1 kinase inh
13	CC1CCN(Cc2nc(-c3ccc(Cl)cc3)no2)CC1	.	.	.	108	i	0.99	.
14	COc1ccc(S(=O)(=O)n2nc(OC(C)=O)cc2N)cc1	.	.	.	95	i	1.2	10
15	CCCCN1C=C(C(=O)OC)C(c2ccccc2C(F)(F)F)C(C(=O)OC)=C1	0.5	-17	69	101	i	1	-13
16	Nc1nc(CN2CCCCCC2)nc(Nc2ccc(F)cc2)n1	-1.0	-14	201	104	i	1	-7
17	COc1ccccc1-c1c(C)nn2c(N3CCN(c4ccccc4OC)CC3)cc(C)nc12	-2.8	.	.	91	i	0.96	-3
18	Cc1cc(C)n2nc(C(=O)NC(C)(C)C)nc2n1	0.2	13	81	103	i	0.96	-5
19	CC(C)S(=O)(=O)c1cnc(-c2cccnc2)nc1N	.	.	.	92	i	1.2	.
20	COc1ccc(S(=O)(=O)N2CCCCC2)cc1NS(=O)(=O)c1cc(Cl)ccc1Cl	-2.5	8	63	65	i	1.1	-7
21	O=C(Cn1cc2c(n1)CCCCC2)NCCN1CCOCC1	-0.9	-20	71	109	i	0.82	-8
22	COc1ccccc1COC(=O)N/C=C/c1ccco1	.	.	.	99	i	0.98	-4
23	O=C1c2ccccc2-c2nc3ncnn3c(-c3ccccc3Cl)c21	-2.3	.	.	103	i	1.1	-9
24	CC(C)N(Cc1cc2ccccc2[nH]c1=O)C(=O)C1CCCCC1	-1.1	.	.	110	i	0.89	3

Individual results from above.
Reading of #16 under INS promoter inh: -14
Reading of #17 under PKD1 kinase inh: -3
Reading of #15 under INS promoter inh cell count: 69
Reading of #24 under GALR2 ag: -1.1
Reading of #13 under HSV replic up primary fold: 0.99
Reading of #23 under RGS16-Gao: 103
Reading of #20 under GALR2 ag: -2.5

Continued.
#	SMILES	GALR2 ag	INS promoter inh	INS promoter inh cell count	RGS16-Gao	HSV replic up	HSV replic up primary fold	PKD1 kinase inh
25	CCCn1c(=O)[nH]c(=O)c2c1nc(-c1ccccc1OC(F)F)n2CCOC	-0.3	-64	121	99	i	0.85	-2
26	O=C(O)CC1SC(=Nc2cccc(O)c2)NC1=O (stereo not given)	-0.9	-13	62	106	i	1.2	13
27	CCOc1ccc2c(C)c(C)c(=O)oc2c1OCC	-1.3	.	.	99	i	1	1
28	O=C1C=CC(O)(c2cc(=O)c3c(O)cc(O)cc3o2)C=C1	-2.5	-224	14	103	i	0.51	-2
29	O=C1CN(C(=O)COc2cccc(F)c2)c2ccccc2N1	-0.5	.	.	107	i	1	-2
30	CC(C)C[C@H](NC(=O)Nc1cccc(Cl)c1)C(=O)O	-0.2	.	.	101	i	1	1
31	COc1ccc(Oc2ccc(NC(=O)c3ccccc3C)cc2)cc1	.	.	.	100	i	0.91	-8
32	CCC(C)(C(=O)NC1CCCCC1)N(Cc1cccs1)C(=O)c1ccccn1 (stereo not given)	.	-107	59	105	i	0.89	3
33	CN(C)S(=O)(=O)c1ccc(Cl)c(NC(=O)CSc2nc3c(cc2C#N)C(=O)CCC3)c1	1.1	-16	78	122	i	0.92	-9
34	CCOC(=O)COc1cc2c(C(=O)OCC)c(C)oc2cc1Br	-0.6	.	.	107	i	1	5
35	COc1ccc(-c2cc(C(=O)OCC(=O)N(C)C)c3ccccc3n2)cc1	-2.0	.	.	99	i	0.8	-11
36	N#Cc1nc(-c2ccc(OCc3ccccc3)cc2)oc1N1CCOCC1	-1.6	-50	147	102	i	0.91	-1
37	Cc1nn(C)c(Cl)c1/C=N/OC(=O)c1ccc(F)cc1	.	25	111	100	i	1.1	5
38	CCOC(=O)C(Cc1ccccc1)C(=O)Nc1cccc(C)c1 (stereo not given)	0.6	-35	123	103	i	1	5
39	CC1OC2C(OC1C)N(S(C)(=O)=O)CCN2S(C)(=O)=O (stereo not given)	-1.4	45	124	103	i	0.92	0
40	Cc1ccc(S(=O)(=O)N(CC(=O)Nc2ccccc2-c2ccccc2)c2ccc(C)cc2C)cc1	0.0	-63	122	115	i	1.1	4
41	COC(=O)Nc1ccc(S(=O)(=O)NCCCCCC(=O)O)cc1	.	-50	80	107	i	0.95	-4
42	Cc1ccc(-n2nc(C)c3c2OC(N)=C(C#N)C3c2ccc(F)cc2)cc1 (stereo not given)	-1.1	21	99	103	i	1.1	-11
43	Cc1ccc(-n2c(-c3cccs3)nc3nc4ccccc4nc32)cc1	-1.2	5	122	96	i	0.9	0
44	Clc1ccc(-n2nnnc2-c2cnc3ccc(Cl)cc3c2-c2ccccc2)cc1	.	.	.	110	i	0.81	.
45	CC(=O)Nc1ccccc1OCC(=O)c1cc(C)n(Cc2cccs2)c1C	-0.9	9	114	102	i	0.96	-6
46	O=C(Nc1nc(-c2ccco2)cs1)c1ccccc1	-2.7	.	.	98	i	1.1	-9
47	CC1=C(C(=O)OCC2CCCO2)C(c2ccccc2)C2=C(CCCC2=O)N1 (stereo not given)	.	0	138	104	i	0.98	-4
48	COc1ccc(C2SCC(C(=O)NCc3ccc(F)cc3)N2C(C)=O)cc1 (stereo not given)	-2.9	.	.	106	i	1.1	-8
49	CCOC(=O)c1ccc(NC(=O)c2nc[nH]c2C(=O)NCc2ccccc2)cc1	.	.	.	101	i	0.92	.
50	CC(C)(CNC(=O)COc1ccccc1Cc1ccccc1)N1CCOCC1	.	.	.	101	i	1.1	-6
51	O=C(CSc1ccccn1)Nc1ccc(Br)cn1	-1.4	-6	77	102	i	0.94	2
52	COc1ccc(C(=O)CC2OC(=O)c3ccccc32)cc1OC (stereo not given)	-2.7	-35	94	101	i	1.1	-6
53	COC(=O)[C@H](C)NC(=O)NC(C)CCc1ccccc1 (stereo not given in full)	-1.2	-23	123	103	i	0.8	-6
54	Cc1ccccc1OCC(O)Cn1c(=N)n(Cc2ccccc2)c2ccccc21 (stereo not given)	.	.	.	101	i	0.62	.
55	O=C(N/N=C/c1cc(Br)c(Br)o1)c1ccc2c(c1)OCCO2	.	.	.	97	i	0.98	.
56	Cc1cc(N)n2nc(-c3ccccc3)cc2n1	-0.9	42	86	93	i	1	-12
57	O=C(/C=C/c1cn(CC(O)CN2CCOCC2)c2ccccc12)c1cccs1 (stereo not given)	.	.	.	100	?	.	.
58	O=C(c1ccco1)N1CCN(S(=O)(=O)c2ccc(Cl)s2)CC1	-3.0	37	204	.	i	0.83	-11
59	COCCCn1c(C)cc(C(=O)COC(=O)CCc2nc3ccccc3c(=O)[nH]2)c1C	.	.	.	102	i	1	.
60	COc1ccc(/C=C2/SC(=O)N(CC(=O)NCCC(C)C)C2=O)cc1OC	.	.	.	97	i	0.93	4

Ordered by length of the SMILES (lowest first): part of the list above
#	SMILES	GALR2 ag	INS promoter inh	INS promoter inh cell count	RGS16-Gao	HSV replic up	HSV replic up primary fold	PKD1 kinase inh
50	CC(C)(CNC(=O)COc1ccccc1Cc1ccccc1)N1CCOCC1	.	.	.	101	i	1.1	-6
58	O=C(c1ccco1)N1CCN(S(=O)(=O)c2ccc(Cl)s2)CC1	-3.0	37	204	.	i	0.83	-11
57	O=C(/C=C/c1cn(CC(O)CN2CCOCC2)c2ccccc12)c1cccs1 (stereo not given)	.	.	.	100	?	.	.

Next section
#	SMILES	GALR2 ag	INS promoter inh	INS promoter inh cell count	RGS16-Gao	HSV replic up	HSV replic up primary fold	PKD1 kinase inh
61	COc1cc(C(=O)Nc2cc(C)ccn2)cc(OC)c1OC	-3.8	41	108	105	i	0.83	-5
62	O=C(CSc1ncccn1)NCc1ccccc1	-1.1	22	117	102	i	0.95	-7
63	CC1(C)CC(=O)C2=C(C1)Oc1ncn(CCCn3ccnc3)c(=N)c1C2c1ccccc1 (stereo not given)	0.0	-46	86	101	i	1.1	-16
64	Cc1nn(-c2ccccc2)c2c1C(c1cccnc1)N1C=C(S(=O)(=O)N3CCCCC3)C=CC1=N2 (stereo not given)	0.1	.	.	75	i	0.81	-2
65	O=C(COc1ccccc1)Nc1ccc(S(=O)(=O)N2CCCC2)cc1	-3.5	.	.	100	i	0.92	-3
66	COC(=O)C12CCC(C)(c3nc4ccccc4nc31)C2(C)C (stereo not given)	.	.	.	101	i	0.97	0
67	CCCc1nc2oc3c(NCC4CCCO4)ncnc3c2c2c1COC(C)(C)C2 (stereo not given)	0.8	.	.	95	i	0.79	-4
68	N=c1n(CCN2CCCCC2)c2ccccc2n1CC(O)c1ccc(Cl)c(Cl)c1 (stereo not given)	-2.5	-21	66	100	i	0.41	1
69	CCOCC(=O)Nc1cc(Cl)ccc1C	.	39	82	97	i	0.84	-1
70	O=C(CN1C(=O)C2CC=CCC2C1=O)Nc1ccc(-c2nnc3n2CCCCC3)cc1 (stereo not given)	-1.7	.	.	104	i	0.97	-5
71	CC1CCC(NC(=O)C2c3ccccc3C(=O)N2CCCN2CCOCC2)CC1 (stereo not given)	-3.2	10	119	100	i	0.93	2
72	CC(C)(C)C(=O)Nc1ccc(Oc2ccc3c(c2)C(=O)N(c2ccc(O)cc2)C3=O)cc1	2.9	13	94	95	i	0.83	2
73	Cc1n[nH]c(C)c1C(=O)CC1(O)C(=O)N(Cc2ccccc2)c2ccc(Br)cc21 (stereo not given)	0.8	-38	67	97	i	0.88	-1
74	Cc1ccc(Sc2ncccc2COC(=O)NC(C)C)cc1	.	0	68	78	i	1.1	1
75	NC(=O)c1oc2ccc(Cl)cc2c1N	-1.3	8	113	98	i	0.92	15
76	O=C(NC(C(=O)c1ccccc1)n1ccc(=O)[nH]c1=O)c1ccccc1 (stereo not given)	-0.2	-21	86	103	i	0.98	-7
77	Cc1cc(C)c(NN=c2c(=O)c3ccccc3c2=O)c(C)c1	-2.6	-23	79	100	.	.	-7
78	COc1ccc(C2C(C(=O)c3cccs3)=C(O)C(=O)N2c2cccc(C)n2)cc1OC (stereo not given)	.	.	.	100	i	1	.
